# Mtb H37Rv: Mycobacterium tuberculosis H37Rv growth inhibition, cell based, confirmatory dose response (AID 1949) | most inactive calls were filed without a number and no value below 0 was filed | actives 1.6% (n = 100,000) | inhibition, % at 10 µg/mL, or IC50 in µg/mL where a hit was titrated;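 active = confirmed in a dose series; inconclusive = about 50% or more but not retested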;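 note: bacteria grown 7 days with compound before Alamar blue readout; 0% = untreated bacteria and 100% = reference antibiotic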
# The depositor's hits bear a star; i = inactive; ? = inconclusive.
SMILES,Mtb H37Rv
O=C(CSc1nnnn1-c1ccccc1)Nc1ccc(F)c(Cl)c1,i
Cc1ccc(-c2nc(N3CCOCC3)c3ccccc3n2)cc1,i
COc1ccc(Cc2nnc(SCC(=O)Nc3ccc(C(C)C)cc3)o2)cc1,21%
CCc1ccc(S(=O)(=O)N(C(=O)c2ccncc2)c2ccc(OC(=O)c3ccncc3)cc2)cc1,i
CN(c1ccccc1C(=O)O)S(=O)(=O)c1ccc(Cl)c(Cl)c1,i
Cc1cc(I)ccc1NC(=O)c1ccc(-c2cccc([N+](=O)[O-])c2)o1,9%
S=C(NCC1CCCO1)Nc1ccc(Nc2ccccc2)cc1 (stereo unspecified),i
Cc1c(C)c2ccc(OCC(=O)c3ccccc3)c(C)c2oc1=O,i
N#CCCn1cc(CN(Cc2ccccc2)C(=O)c2ccccc2)c(-c2ccc(F)cc2)n1,i
Cc1ccccc1C(=O)O/N=C(\N)c1ccccn1,i
c1ccc(-c2noc(CN3CCN(Cc4ccc5c(c4)OCO5)CC3)n2)cc1,i
Cc1ccc(S(=O)(=O)NN(C)C)cc1,i
CCOC(=O)c1c(NC(=S)Nc2c(C)n(C)n(-c3ccccc3)c2=O)sc2c1CCCCCC2,i
COc1ccc(CN2CCC(C(=O)N3CCc4ccccc4C3)CC2)c(OC)c1,i
CCc1ccc(S(=O)(=O)N2CCN(C(=O)OC)CC2)cc1,i
CC(=O)Oc1ccccc1C(=O)NCc1ccc(F)cc1,i
CC(C)NS(=O)(=O)c1ccc(OCC(=O)Nc2ccccc2Cl)cc1,2%
O=C(CN(Cc1ccc(Cl)cc1)S(=O)(=O)c1ccccc1)N1CCCC1,i
Cc1cc(SCC(N)=O)nc2ccccc12,i
Cc1ccc(C(=O)N2CCC(C(=O)NC3CCCCCC3)CC2)cc1,i

# Random excerpt: 2 compounds from above, in no set order.
SMILES,Mtb H37Rv
CC(C)NS(=O)(=O)c1ccc(OCC(=O)Nc2ccccc2Cl)cc1,2%
S=C(NCC1CCCO1)Nc1ccc(Nc2ccccc2)cc1 (stereo unspecified),i

# Next section.
SMILES,Mtb H37Rv
O=C(CNC(=O)C1CCCCC1)Nc1cc(Cl)ccc1Cl,i
O=C(NC(=S)Nc1ccc(C(=O)O)c(Cl)c1)c1ccco1,i
COc1cccc(-c2nc3sc4c(c3c(=O)[nH]2)CCCCCC4)c1O,i
CCOC(=O)C1CCN(C(=O)CN(C2CCCCC2)S(C)(=O)=O)CC1,i
COc1ccccc1N(CC(=O)NC1CCCCCC1)S(C)(=O)=O,8%
O=S(=O)(Nc1cccc(F)c1)c1cccs1,i
N#Cc1c(C(F)(F)F)cc(-c2cccs2)nc1SCC(=O)Nc1sc2c(c1C#N)CCC2,1%
CCOc1ccc(NC(=O)NCCc2cccc(Cl)c2)cc1,i
COc1ccc(Cl)cc1NC(=O)c1ccccc1N(C)S(=O)(=O)c1ccccc1,i
Cc1ccc(NC(=O)CSc2nnc(Cc3ccccc3)n2-c2ccc(F)cc2)cc1C,i
Cc1ccc(C(=O)Nc2ccccc2N2CCCCC2)c(C)c1,1%
COc1ccc(N(CC(=O)NCCSCc2c(F)cccc2Cl)S(C)(=O)=O)cc1Cl,1%
CC(=O)Nc1ccc(NC(=O)CSCc2ccc([N+](=O)[O-])cc2)cc1,i
Cc1ccc(C(=O)NC(=S)Nc2cccc(Cl)c2)cc1C,i
O=C(c1c(F)cccc1F)N1CCN(c2ccc([N+](=O)[O-])cc2)CC1,i
COc1ccc(NC(=O)CSc2nnnn2C)cc1Cl,i
C=CCNC(=O)C(=O)NCc1ccc(C(C)C)cc1,i
CCn1c(CNC(=O)c2ccccc2)nnc1SCC(=O)Nc1cc(C(F)(F)F)ccc1Cl,2%
Cc1ccccc1N=C1NC(=O)/C(=C/c2ccc(Br)cc2)S1,i
N#Cc1ccccc1NC(=O)Cc1ccc(Br)cc1,i
C=CCOc1ccc2ccccc2c1CNCCCN1CCOCC1,i
Cc1cc(C)cc(OCC(=O)Nc2cccc(-c3nnc(-c4ccccc4)o3)c2)c1,i
COc1cccc(Nc2nc(-c3cccnc3)cs2)c1,2%
CCC(C)n1[nH]c(=O)c2c(C)cc(=O)[nH]c21 (stereo unspecified),0%
COc1ccc(S(=O)(=O)Nc2ccc(S(=O)(=O)Nc3ccccc3Cl)cc2)cc1,i
COc1cc2c(cc1OC)C(C(CCC(C)C)C(N)=O)=NC(C)(C)C2 (stereo unspecified),i
COc1ccc(-c2nnc(SCC(=O)Nc3ccc(I)cc3C)n2C)cc1,i
O=C(c1cc2c(s1)CCCC2)N1CCN(S(=O)(=O)c2ccccc2)CC1,i
CCN(CC)CCN1C(=O)C(O)=C(C(=O)c2sc(C)nc2C)C1c1ccccn1 (stereo unspecified),i
O=C(c1sc2cccc(Cl)c2c1Cl)N1CCOCC1,i
CCOC(=O)c1c(NC(=O)CCCOc2ccccc2C)sc(C)c1C,1%
CSCCC(NC(C)=O)C(=O)Oc1ccc2c3c(c(=O)oc2c1)CCCC3 (stereo unspecified),i
CCOC(=O)C1=C(C)NC2=C(C(=O)CC(C)(C)C2)C1c1ccc(OC2CCCC2)cc1 (stereo unspecified),45%
CCOC(=O)/C=C/C(=O)Nc1sc2c(c1C(=O)OC)CCC2,0.57µg/mL*
CCOc1ccc(CCNC(=O)Cc2ccc(OCC)c(OCC)c2)cc1OCC,i
CCOC(=O)c1cnc2ccc(F)cc2c1NCCN(C)C,i
CCc1ccc(-c2csc(N3C(=O)C4C5CCC(C5=C(C)C)C4C3=O)n2)cc1 (stereo unspecified),i
O=C(O)c1cccc(NC(=O)c2cn(-c3ccccc3)nc2-c2ccc(F)cc2)c1,i
CCC(CC)C(=O)Nc1cc(S(=O)(=O)N(CC)CC)ccc1OC,i
Cc1cc(C(F)(F)F)nc(SCC(=O)NCc2cccc(C(F)(F)F)c2)n1,i
CN1CCN(C(=O)C2CC(c3cccc(Br)c3)=NO2)CC1 (stereo unspecified),i
COc1cccc(NC(=O)c2ccc(-c3cccc(C(F)(F)F)c3)o2)c1,i
O=C(COc1cccc2ccccc12)N1CCN(c2ccccc2)CC1,2%
CCCOc1ccc(N2C(=O)CC(NCCc3ccc(Cl)cc3Cl)C2=O)cc1 (stereo unspecified),i
Cc1ccc(C)c(NC(=O)c2ccc(F)cc2)c1,i
CCOC(=O)c1c(NC(=O)Cc2cccs2)sc(C(=O)Nc2ccccc2C)c1C,i
O=C(NCCN1CCN(C(=O)c2ccccc2Cl)CC1)C(=O)NCc1ccc(Cl)cc1,1%
CCCn1cnc2cc(NCc3ccccn3)ccc21,i
O=C(NCc1ccc2c(c1)OCO2)NC1CCCCC1,i
CC1=C(C(=O)OC2CCCC2)C(c2ccc(O)cc2)NC(=O)N1 (stereo unspecified),i
CCN(CC)c1ccc(NC(=O)COc2ccc(Br)cc2Cl)cc1,2%
COc1ccc2cc(S(=O)(=O)NCc3ccco3)ccc2c1,i
COc1ccc(Cc2nnc(NC(=O)c3ccc(C)c(C)c3)s2)cc1,i
CC1(C)CC2CC(C)(CN2C(=O)CCN2C(=O)c3ccccc3C2=O)C1 (stereo unspecified),i
OCCNC1CCCc2c1[nH]c1ccc(-c3ccccc3)cc21 (stereo unspecified),?
Cc1c(Cl)cccc1NC(=O)CCCN1C(=O)CCC1=O,i
COc1ccc(CC(=O)Nc2ccc(F)c(Cl)c2)cc1OC,i
COC(=O)c1c(C)oc2ccc(OC(=O)c3ccccc3OC)cc12,32%
COc1ccc(C)c(NC(=O)COc2c(C)cccc2C)c1,i
Cc1ccc(C(=O)Nc2ccc(S(=O)(=O)N3CCC(C)CC3)cc2)cc1C,0%

# In a second layout: results already given.
Structure | Mtb H37Rv
CCCOc1ccc(N2C(=O)CC(NCCc3ccc(Cl)cc3Cl)C2=O)cc1 (stereo unspecified) | i
Cc1ccc(C)c(NC(=O)c2ccc(F)cc2)c1 | i
CCOC(=O)c1c(NC(=O)Cc2cccs2)sc(C(=O)Nc2ccccc2C)c1C | i
O=C(NCCN1CCN(C(=O)c2ccccc2Cl)CC1)C(=O)NCc1ccc(Cl)cc1 | 1%
CCCn1cnc2cc(NCc3ccccn3)ccc21 | i
O=C(NCc1ccc2c(c1)OCO2)NC1CCCCC1 | i
CC1=C(C(=O)OC2CCCC2)C(c2ccc(O)cc2)NC(=O)N1 (stereo unspecified) | i
CCN(CC)c1ccc(NC(=O)COc2ccc(Br)cc2Cl)cc1 | 2%
COc1ccc2cc(S(=O)(=O)NCc3ccco3)ccc2c1 | i
COc1ccc(Cc2nnc(NC(=O)c3ccc(C)c(C)c3)s2)cc1 | i
CC1(C)CC2CC(C)(CN2C(=O)CCN2C(=O)c3ccccc3C2=O)C1 (stereo unspecified) | i
OCCNC1CCCc2c1[nH]c1ccc(-c3ccccc3)cc21 (stereo unspecified) | ?
Cc1c(Cl)cccc1NC(=O)CCCN1C(=O)CCC1=O | i
COc1ccc(CC(=O)Nc2ccc(F)c(Cl)c2)cc1OC | i
COC(=O)c1c(C)oc2ccc(OC(=O)c3ccccc3OC)cc12 | 32%
COc1ccc(C)c(NC(=O)COc2c(C)cccc2C)c1 | i
Cc1ccc(C(=O)Nc2ccc(S(=O)(=O)N3CCC(C)CC3)cc2)cc1C | 0%

# The list goes on.
SMILES,Mtb H37Rv
Cc1ccc(Cl)cc1N1CC(C(=O)O)CC1=O (stereo unspecified),i
Cc1ccc(S(=O)(=O)N2CCC(C(=O)Nc3ccc(OCc4ccccc4)cc3)CC2)cc1,i
O=C(CSc1nnc(NC(=O)c2ccccc2)s1)c1ccc2c(c1)Cc1ccccc1-2,i
Cc1cc(O)ccc1NC(=O)c1ccc2c(c1)C(=O)N(C1CCCCC1)C2=O,i
O=C(Nc1sc2c(c1CO)CCCC2)c1ccccc1,i
COc1ccccc1-c1c(C(F)(F)F)oc2cc(OC(=O)CC(C)(C)C)ccc2c1=O,i
CCc1sc(NS(=O)(=O)c2ccc(NC(C)=O)cc2)nc1-c1ccccc1,i
CC(=O)Nc1nnc(SCc2cccc(C)c2)s1,i
Oc1c(-c2nc3c4c5c(sc4ncn3n2)CCCCC5)ccc2ccccc12,i
CCOC(=O)CCc1c(C)c2ccc(OCc3cccc(F)c3)c(C)c2oc1=O,i
CCCC(=O)Nc1ccccc1NC(=O)COc1ccc(CC)cc1,i
CN1CCN(C(=O)c2nn(C)c(=O)c3ccccc23)CC1,i
CC(=O)Nc1ccc(C(=O)OCc2ccc(F)cc2)cc1,1%
S=C(c1cn(Cc2ccc(Cl)cc2Cl)c2ccccc12)N1CCCC1,i
COC(=O)c1ccc(NS(=O)(=O)c2cccc3c2C(=O)c2ccccc2C3=O)cc1,1%
CCOc1cc(C(=O)NC(=S)Nc2cccc(C(=O)O)c2)cc(OCC)c1OCC,5%
Cc1ccc(-c2n[nH]c(=S)c3ccccc23)cc1S(=O)(=O)NCc1cccnc1,2%
CCOC(=O)c1c(NC(=O)CSc2nccc(C)n2)sc(C(C)=O)c1C,i
CCOc1ccc(NC(=S)NCC(C)C)cc1,i
CCOc1cc(C)c(C(C)C)cc1S(=O)(=O)n1cnc(C)c1,i
CSc1cccc(NC(=O)C(=O)N2CCCCC2)c1,i
COc1ccc(C2(CNCC(O)COc3ccccc3)CCCC2)cc1OC (stereo unspecified),2%
O=C1c2cccc3cccc(c23)C(=O)N1OS(=O)(=O)c1cccc2cccnc12,0%
CCOC(=O)c1c(-c2ccc(OC)cc2)csc1NC(=O)c1ccccc1[N+](=O)[O-],i
Cc1cc(=O)[nH]c(NCc2ccc(Cl)cc2)n1,1%
COc1c(Cl)cc(C(=O)Nc2nnc(C)s2)cc1Cl,i
COc1ccc(S(=O)(=O)N2Cc3ccccc3CC2C(=O)NCc2ccccc2)cc1OC (stereo unspecified),i
CN(CC(=O)Nc1ccccc1Cl)S(=O)(=O)c1ccc(Cl)cc1,2%
COc1ccc(C(=O)Nc2ccc(F)c(Cl)c2)c(OC)c1OC,i
COc1ccc(CCNC(=S)Nc2ccc(C(C)=O)cc2)cc1,i
O=[N+]([O-])c1ccc(N2CCN(S(=O)(=O)c3ccccc3)CC2)cc1N1CCCCC1,i
CS(=O)(=O)N1CCN(Cc2ccc(F)cc2)CC1,i
Cc1cccc(NS(=O)(=O)c2ccc(Cl)cc2)c1,5%
O=C(c1cc(-c2ccccn2)nc2ccc(Cl)cc12)N1CCCC1,i
O=C(Nc1nc(-c2ccc(Cl)cc2)cs1)c1ccc(Br)o1,i
CCCCCC(=O)Nc1ccccc1N1CCN(C(=O)c2ccccc2)CC1,i
COc1cc([N+](=O)[O-])ccc1NC(=S)NC(C)c1ccc(C)cc1 (stereo unspecified),2%
CCNC(=O)c1ccc(N(C)S(C)(=O)=O)cc1,i
O=C(NCCN1CCN(C(=O)c2c(F)cccc2F)CC1)C(=O)Nc1ccc(Cl)cc1,i
Cc1cccc(C)c1OCC(=O)NCc1ccccc1Cl,7%
Cc1ccc(C2/C(=C(/O)c3ccccc3)C(=O)C(=O)N2c2cccc([N+](=O)[O-])c2)cc1 (stereo unspecified),i
CC(=O)c1cccc(NC(=O)c2cccc(NC(=O)c3ccco3)c2)c1,i
Cc1ccc(-c2nn(-c3cc(N4CCN(C(=O)c5ccc(F)cc5)CC4)ccc3[N+](=O)[O-])c(=O)c3ccccc23)cc1,i
COc1cc(/C=N/NS(=O)(=O)c2ccc3ccccc3c2)ccc1OCC(N)=O,5%
CCc1cc(=O)oc2cc(C)cc(OCC(=O)c3cccc(OC)c3)c12,i
O=C(O)c1cc(NC(=S)NC(=O)C(c2ccccc2)c2ccccc2)ccc1Cl,i
COC(=O)c1c(NC(=O)CSc2nnc3ccccn23)sc(C)c1C,i
COCCNS(=O)(=O)c1ccc(C)c(C)c1C,i
CC(=O)Nc1ccc(NC(=O)C(C)Oc2ccccc2F)cc1 (stereo unspecified),i
COc1ccc(C(=O)Nc2nc3n(n2)C(c2ccccc2)C=C(c2ccccc2)N3)cc1 (stereo unspecified),5%
N#Cc1ccc(C(=O)NCCCc2ccccc2)c(F)c1,0%
CN(C)S(=O)(=O)c1ccc(NC(=O)c2ccc(Cl)cc2Cl)cc1,i
O=C1CC(N2CCC(c3nc4ccccc4s3)CC2)C(=O)N1c1ccc(F)cc1 (stereo unspecified),i
COCCCNC(=O)c1cccc2ccccc12,i
COC(=O)c1ccc(OCc2ccccc2C)cc1,i
CCn1c(=O)c(C(=O)NCCN2CCCCC2)c(O)c2ccccc21,i
O=c1c2ccccc2nc(SCc2cccc(F)c2)n1C1CCCC1,3%
Cc1cc(Cl)ccc1OCCN1CCNCC1,i
CS(=O)(=O)NCCSCc1ccco1,i

# Screening data deposited in PubChem by Southern Research Institute.

# This is a subset; rates above refer to the full screens.
